From PubChem
Mtb H37Rv: Mycobacterium tuberculosis H37Rv growth inhibition, putative kinase inhibitor library, confirmatory dose response (AID 2842) | M. tuberculosis H37Rv growth inhibition; higher % means a stronger effect; some inactives read as strong as hits | inhibition, % at 10 µg/mL, or IC90 in µg/mL where a hit was titrated | 24,000 compounds, 5.2% hits;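 active = confirmed in a dose series; about a fifth of its hits are not listed in these tables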;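 also: bacteria incubated one week before Alamar blue readout; 0% = bacteria only wells and 100% = bacteria with high antibiotic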
* marks the source's active call; other numbers are inactive results.

SMILES	Mtb H37Rv
O=C(CC1Sc2ccccc2NC1=O)Nc1ccccc1OC(F)F (stereo not drawn)	-5%
CCCCOc1ccc(C(=O)Nc2nc3ccc(C)cc3s2)cc1	4%
Nc1ncnc(Oc2ccc(Cl)cc2)c1[N+](=O)[O-]	4%
CCCNc1ncnc(N)c1[N+](=O)[O-]	-3%
Cc1ccc(NC(=O)Cn2cnc3c(cnn3-c3ccc(F)cc3)c2=O)cc1Cl	1%
Cc1ccc(C)c(Nc2ncnc3nc[nH]c23)c1	16%
COc1ccc(Cc2nnc(SCc3ccc(C)cc3)n(N)c2=O)cc1	5%
COc1ccc(NC(=O)CSc2nncc(=O)n2N)cc1	50%
CCOc1ccc(-c2nc(C(N)=O)c3[nH]c(=O)n(-c4ccccc4F)c3n2)cc1OC	1%
CC1CCN(c2nc3c(c(=O)[nH]c(=O)n3C)n2CCSc2nc3ccccc3s2)CC1	4%
COc1cccc(NC(=O)c2cnc3n(c2=O)CCS3)c1	-2%
Cc1nn(-c2ccccc2)c2sc(C(=O)NCCc3ccccc3)cc12	9%

Brought forward from above: three compounds, then new ones.
SMILES	Mtb H37Rv
CC1CCN(c2nc3c(c(=O)[nH]c(=O)n3C)n2CCSc2nc3ccccc3s2)CC1	4%
COc1cccc(NC(=O)c2cnc3n(c2=O)CCS3)c1	-2%
Cc1nn(-c2ccccc2)c2sc(C(=O)NCCc3ccccc3)cc12	9%
COC(=O)c1cccc(Oc2nnc(-c3ccc(F)cc3)c3ccccc23)c1	-4%
COc1ccccc1C(=O)Nc1c(C(=O)Nc2ccc3c(c2)OCO3)oc2ccccc12	-4%
COC(=O)c1sc2ccccc2c1NC(=O)c1cccc(OC)c1	-8%
Cc1ccc(NC(=O)CN(C2=NC3CS(=O)(=O)CC3S2)c2ccc(C(C)C)cc2)cc1 (stereo not drawn)	81%
COc1ccc2c(c1)c(=O)c(S(=O)(=O)c1ccc(F)cc1)cn2Cc1cccc(Cl)c1	72%
O=C(NNC(=O)c1ccc(-c2cccc(Cl)c2)o1)c1ccccc1	11%
COc1cc2c3nnc(-c4ccc(Cl)cc4)c-3cn(Cc3cccc(F)c3)c2cc1OC	22%
Cn1c(=O)[nH]c(=O)c2c1nc(N1CCN(Cc3cccc(Cl)c3)CC1)n2CCc1ccccc1	4%
Nc1c(-c2nc(-c3ccc(Br)cc3)cs2)c2ccccn2c1C(=O)c1cccs1	7%
COc1ccc(C2=CC(c3ccc(Cl)cc3)n3ncnc3N2)cc1 (stereo not drawn)	82%
Cc1ccc(C)c(NC(=O)CN2N=NC3C(=O)N(c4ccc(C)c(Cl)c4)C(=O)C32)c1 (stereo not drawn)	-13%
Cc1c(NC(=O)CCCN2C(=O)c3cccc4cccc(c34)C2=O)c(=O)n(-c2ccccc2)n1C	-3%
Nc1cc(C(=O)O)ccc1-n1ccnc1	-3%
CCC(C)Nc1nc2c(C)cccn2c(=O)c1C=Nc1ccc([N+](=O)[O-])cc1Cl (stereo not drawn)	8%
CCC(=O)NCCc1cc2cc(C)c(C)cc2[nH]c1=O	1%
Cc1ccc(-c2csc(NC(=O)c3ccc(S(=O)(=O)N4CCC5C=CC=CC5C4)cc3)n2)cc1 (stereo not drawn)	1%
Cc1nnc(SCCn2c(N3CCC(C)CC3)nc3c2c(=O)n(C)c(=O)n3C)s1	2%
CC(C)N1CCc2c(sc(NC(=O)c3cc4cc([N+](=O)[O-])ccc4s3)c2C(N)=O)C1	8%
O=C(CN1C(=O)CCC1=O)Nc1nnc(-c2cccnc2)o1	-3%
COc1cccc(N2CC(NC(=O)c3cccc(C(F)(F)F)c3)CC2=O)c1 (stereo not drawn)	-2%
COc1ccc(NC(=O)c2oc3ccccc3c2NC(=O)COc2ccc(C)cc2)cc1	10%
COc1ccc(Cl)cc1NC(=O)CSC1=C(C#N)C(c2ccc(OC)c(OC)c2)CC(=O)N1 (stereo not drawn)	2%
O=C1CCc2cc(S(=O)(=O)Nc3ccc(F)cc3)cc3c2N1CCC3	-2%
COc1ccc(Cn2cc3c(-c4ccc(F)cc4)nnc-3c3cc4c(cc32)OCCO4)cc1	82%
CCOC(=O)c1nn(-c2ccccc2)c(=O)c2c(NC(=O)c3ccccc3Cl)scc12	-12%
COc1ccc(-c2nnc(NC(=O)C(C)C)o2)cc1	20µg/mL*
NC(=O)c1c(NC(=O)c2ccccc2Oc2ccccc2)sc2c1CCCCC2	-5%
Cc1cn2c3c(=O)[nH]c(=O)n(C)c3nc2n1C(C)c1ccccc1 (stereo not drawn)	8%
O=C(Nc1c(C(=O)Nc2cccc(F)c2)oc2ccccc12)c1ccc2ccccc2c1	3%
CCCCc1nnc(NC(=O)CCN2C(=O)/C(=C\c3ccco3)SC2=S)s1	-11%
O=C(NCc1nnnn1-c1ccc(F)cc1)C1CC(=O)N(c2ccc(F)cc2)C1 (stereo not drawn)	-20%
N#Cc1ccc(-c2csc(NC(=O)C3CCCCC3)n2)cc1	22%
COc1ccc2cc(CCNC(=O)c3ccccc3[N+](=O)[O-])c(=O)[nH]c2c1	3%
Cc1ccc(Nc2nc(NCCN(C)C)nc3nccnc23)cc1C	-15%
COc1ccc(-c2cn(-c3ccc(C)c(F)c3)c(=O)[nH]2)cc1OC	-1%
COc1ccccc1NC(=O)CSc1nc(N)c(NC(=O)c2ccc(F)cc2)c(=O)[nH]1	4%
O=C(Nc1cccc([N+](=O)[O-])c1)c1cnc2n(c1=O)CCS2	6%
COc1cccc(C(=O)Nc2nnc(-c3ccccc3)o2)c1	84%
CN(c1ccccc1)S(=O)(=O)c1ccc(C(=O)Nc2nc3c(cc4c5c(cccc53)CC4)s2)cc1	-6%
Cc1cccc(OCC(O)Cn2c(N3CCC(C)CC3)nc3c2c(=O)[nH]c(=O)n3C)c1 (stereo not drawn)	7%
COc1ccc(Nc2cc(C)nc3c(-c4ccccc4)cnn23)cc1	13%
Oc1c(C(c2ccco2)N2CCCCC2)sc2ncnn12 (stereo not drawn)	-7%
Cc1ccccc1C(=O)N=Nc1c(O)[nH]c2ccc(Br)cc12	31µg/mL*
O=C1NC2=C(C(=O)N(CCO)C2)C(c2ccc([N+](=O)[O-])cc2)N1 (stereo not drawn)	-21%
COCCn1c(SCCO)nc2c([nH]c3ccccc32)c1=O	0%
Cc1cccc(Nc2nc3c(c(=O)n(C)c(=O)n3C)n2CC(N)=O)c1	-2%
O=C(Nc1ccc(S(=O)(=O)N2CCC(c3nc4ccccc4[nH]3)CC2)cc1)c1cccc(Cl)c1	0.86µg/mL*
CCOC(=O)c1nn(-c2ccccc2)c(=O)c2c(NC(=O)c3ccc(Cl)cc3)scc12	-7%
Cn1c(=O)[nH]c(=O)c2c1nc(N1CCC(C(N)=O)CC1)n2CCSc1nc2ccccc2s1	1%
Cc1cc(C)cc(C(=O)Nc2cc(C)c3c(=O)oc4ccccc4c3n2)c1	-5%
CC(=O)c1ccc(C(=O)Nc2sc3c(c2C(N)=O)CCN(C(C)=O)C3)cc1	5%
Cc1ccc(NC(=O)c2cccc(Nc3nc(-c4ccccc4)c4cc(Cl)ccc4n3)c2)cc1	68%
CCOC(=O)c1nn(-c2ccc(F)cc2)c(=O)c2c(NC(=O)c3cccc([N+](=O)[O-])c3C)scc12	-22%
N=c1c(-c2nc3ccccc3s2)cc2c(=O)n3ccccc3nc2n1Cc1ccco1	-14%
CCOC(=O)Cn1c(=O)c2c(nc3n(CCc4ccccc4)c(C)cn23)n(C)c1=O	-1%
COc1cccc(-c2csc(/C(C#N)=C\Nc3ccc([N+](=O)[O-])cc3)n2)c1	-2%
COc1cccc(-c2nc(C(N)=O)c3[nH]c(=O)n(-c4ccc(C(C)(C)C)cc4)c3n2)c1OC	-7%
Cc1cccc(NC(=O)CSc2ccc3nnc(-c4ccncc4)n3n2)c1	-1%
CC(C)C(=O)Oc1ccc(C(=O)Nc2cc(Cl)ccc2Cl)cc1	37%
O=C(Nc1cccc(-c2csc(NC(=O)C3=COCCO3)n2)c1)C1=COCCO1	80%

In another format: results already given.
structure,Mtb H37Rv
CC(=O)c1ccc(C(=O)Nc2sc3c(c2C(N)=O)CCN(C(C)=O)C3)cc1,5%
Cc1ccc(NC(=O)c2cccc(Nc3nc(-c4ccccc4)c4cc(Cl)ccc4n3)c2)cc1,68%
CCOC(=O)c1nn(-c2ccc(F)cc2)c(=O)c2c(NC(=O)c3cccc([N+](=O)[O-])c3C)scc12,-22%
N=c1c(-c2nc3ccccc3s2)cc2c(=O)n3ccccc3nc2n1Cc1ccco1,-14%
CCOC(=O)Cn1c(=O)c2c(nc3n(CCc4ccccc4)c(C)cn23)n(C)c1=O,-1%
COc1cccc(-c2csc(/C(C#N)=C\Nc3ccc([N+](=O)[O-])cc3)n2)c1,-2%
COc1cccc(-c2nc(C(N)=O)c3[nH]c(=O)n(-c4ccc(C(C)(C)C)cc4)c3n2)c1OC,-7%

Further compounds:
SMILES	Mtb H37Rv
COCCSc1nc(N)c(NC(=O)c2ccco2)c(=O)[nH]1	-7%
CC1CCN(S(=O)(=O)c2ccc(C(=O)Nc3cc(C(F)(F)F)ccc3Cl)cc2)CC1	-5%
O=C(CSc1nnc2ccc(-c3ccccc3)nn12)Nc1cccc(C(F)(F)F)c1	-8%
COC(=O)c1c(NC(=O)c2oc3ccc(C)cc3c2C)sc2c1CCCC2	-3%
Cc1c(C)n2c(SCC(=O)Nc3cc(C(F)(F)F)ccc3Cl)nnc2[nH]c1=O	-16%
O=S(=O)(c1ccc(Cl)cc1)c1nnn2c1nc(NCc1ccccc1)c1ccccc12	-4%
COC(=O)c1ccccc1NC1SC(=O)N(c2cccc(C)c2)C1=O (stereo not drawn)	-6%
C=CCSc1nc2ccccc2c(=O)[nH]1	16%
CC1C(=O)N2CCCc3cc(S(=O)(=O)Nc4ccccc4C(N)=O)cc1c32 (stereo not drawn)	-4%
NC(=O)c1oc2ccccc2c1NC(=O)c1ccc(Cl)s1	15%
O=S(=O)(c1ccccc1)c1nc(Nc2ccc(F)cc2F)sc1Cl	-2%
CCCC(=O)Nc1n[nH]c(=S)s1	-1%
CC(=O)c1ccc(NC(=O)CSc2nc(-c3ccco3)nc3c2c(=O)n(C)c(=O)n3C)cc1	-6%
O=C(Nc1nnc(-c2ccc(F)cc2)o1)c1cccc(C(F)(F)F)c1	12µg/mL*
C#CCn1c(=NC(=O)c2ccccc2Br)sc2cc(NC(C)=O)ccc21	14%
CN1C(=O)c2cccc(NC(=O)c3cc(=O)c4ccccc4o3)c2C1=O	-6%
Cc1cccc(C(=O)N2CC(=O)Nc3ccc(C)cc3C2c2ccccc2)c1 (stereo not drawn)	62%
C=CCN(CC=C)S(=O)(=O)c1ccc(C(=O)Nc2nnc(-c3ccc(C)cc3C)o2)cc1	-14%
O=C(NNc1ncnc2c1cnn2-c1ccc(Cl)cc1)c1ccc(Cl)cc1Cl	18%
O=C(CSc1nnc(-c2cccnc2)o1)N1CCC(Cc2ccccc2)CC1	0.87µg/mL*
Cc1ccc(C)c(-c2nnc(NC(=O)C3CCCCC3)o2)c1	-8%
COc1cc(OC)cc(C(=O)N(CCCn2ccnc2)c2nc3c(F)cccc3s2)c1	21µg/mL*
Cc1ccc(COc2cc3oc(=O)cc(C)c3cc2[N+](=O)[O-])cc1	12%
O=C(CN1C(=O)CCC1=O)Nc1nc(-c2cc([N+](=O)[O-])cs2)cs1	74%

Not all compounds are listed, so the mix of outcomes need not match the whole.
